Compound activity as filed in PubChem BioAssay.
miR-21 reporter: miR-21 reporter, rising signal. HeLa miR-21 FLuc reporter, luciferase, 48 h. Potency, µM (highest dose often 38.3 µM), for the others: at the highest dose reporter change, positive = more light. 340,000 tested, under 10 active; active = well fitted rising curve with a large enough effect; inconclusive = small, poorly fitted or top-dose-only effect; inactive = no such curve, though single readings can be large or run the other way;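 further: % of control where 0% means no effect; miR-21 action dims this reporter so a rising signal means less miR-21 action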
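Luminescence from a firefly luciferase reporter carrying a miR-21 binding site downstream, stably expressed under a CMV promoter in HeLa cells that make miR-21 endogenously, reports miRNA modulation after 48 h compound exposure up to approximately 40uM final.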
* hit, by the source's call; u = inconclusive.

1: CCOc1ccc(CN(CCc2ccc3c(c2)OCO3)Cc2cccc(C)c2)cc1
  miR-21 reporter = 0%
2: Cc1cccc(CN2CC=C(c3noc(CCC(=O)Nc4ccc(C)c(F)c4)n3)CC2)c1
  miR-21 reporter = 27%
3: CCOc1ccc2nc(NC(=O)c3cccn(Cc4ccccc4C)c3=O)sc2c1
  miR-21 reporter = -10%
4: CCCC1=Nc2cc(C(=O)NCCCN(CC)CC)ccc2Sc2ccccc21
  miR-21 reporter = 7%
5: CCc1nc(SC)ncc1C(=O)Nc1ccc(Cl)cc1C(=O)c1ccccc1
  miR-21 reporter = -7%
6: O=C1Nc2cc(C(=O)N3CCC4(CC3)OCCO4)ccc2NC1CSCc1cccc(F)c1 (stereo not given)
  miR-21 reporter = 10%
7: CCCc1nc(SC)ncc1C(=O)Nc1ccc(Cl)cc1C(=O)c1ccccc1
  miR-21 reporter = 0%
8: COc1cccc(-n2c(/C=C/c3cccc(C)c3)nc3ccccc3c2=O)c1
  miR-21 reporter = 1%
9: Nc1c(C(=O)Nc2ccc(Cl)cc2)sc2nc3c(cc12)N1CCC3CC1
  miR-21 reporter = 12%
10: Cc1ccccc1-c1nn2c(=O)cc(CN3CCN(C(=O)COc4ccccc4Cl)CC3)nc2s1
  miR-21 reporter = 28%
11: CCOc1ccc2nc(N3CCC(C(=O)Nc4ccc(Br)cc4F)CC3)sc2c1
  miR-21 reporter = -44%
12: COc1ccc(CN2CCc3nc(N4CCN(c5ccc(F)cc5)CC4)ncc3C2)c(OC)c1OC
  miR-21 reporter = u
13: Cc1ccc(Cl)cc1N1CCN(C(=O)C2CCC(CNS(=O)(=O)c3cccs3)CC2)CC1 (stereo not given)
  miR-21 reporter = u
14: CC(C)Oc1ccc(C(=O)Nc2ccc3c(c2)CCCN3C(=O)c2cccs2)cc1
  miR-21 reporter = u
15: CC(C)c1ccc(NC(=O)Cn2c(=O)oc3cc(S(=O)(=O)N4CCCC4)ccc32)cc1
  miR-21 reporter = u

Structural class: the entries above containing a halogen.
2: Cc1cccc(CN2CC=C(c3noc(CCC(=O)Nc4ccc(C)c(F)c4)n3)CC2)c1
  miR-21 reporter = 27%
5: CCc1nc(SC)ncc1C(=O)Nc1ccc(Cl)cc1C(=O)c1ccccc1
  miR-21 reporter = -7%
6: O=C1Nc2cc(C(=O)N3CCC4(CC3)OCCO4)ccc2NC1CSCc1cccc(F)c1 (stereo not given)
  miR-21 reporter = 10%
7: CCCc1nc(SC)ncc1C(=O)Nc1ccc(Cl)cc1C(=O)c1ccccc1
  miR-21 reporter = 0%
9: Nc1c(C(=O)Nc2ccc(Cl)cc2)sc2nc3c(cc12)N1CCC3CC1
  miR-21 reporter = 12%
10: Cc1ccccc1-c1nn2c(=O)cc(CN3CCN(C(=O)COc4ccccc4Cl)CC3)nc2s1
  miR-21 reporter = 28%
11: CCOc1ccc2nc(N3CCC(C(=O)Nc4ccc(Br)cc4F)CC3)sc2c1
  miR-21 reporter = -44%
12: COc1ccc(CN2CCc3nc(N4CCN(c5ccc(F)cc5)CC4)ncc3C2)c(OC)c1OC
  miR-21 reporter = u
13: Cc1ccc(Cl)cc1N1CCN(C(=O)C2CCC(CNS(=O)(=O)c3cccs3)CC2)CC1 (stereo not given)
  miR-21 reporter = u

Next section
16: COc1ccc(OCCOc2cccc(C=C3C(=O)NC(=O)NC3=O)c2)cc1
  miR-21 reporter = -38%
17: Cc1ccccc1C(=O)Nc1ccc(C(=O)OCc2cc(=O)n3nc(C4CC4)sc3n2)cc1
  miR-21 reporter = u
18: Cc1ccc(NC(=O)Cn2cc(C(=O)c3ccccc3)c3ccccc32)c(C)c1
  miR-21 reporter = 13%
19: Cc1cc(-n2c(/C=C/c3cccs3)nc3ccccc3c2=O)ccc1Br
  miR-21 reporter = 21%
20: Cc1ccc(NC(=O)N(Cc2ccc3c(c2)OCO3)C2CCN(Cc3ccccc3)CC2)cc1Cl
  miR-21 reporter = u
21: CCC12CN3CC(CC)(CN(C1)C3c1c(C)[nH]c(=O)[nH]c1=O)C2=O (stereo not given)
  miR-21 reporter = 7%
22: O=C(Nc1ccc2c(c1)OCCO2)c1cccn(Cc2cccc(F)c2)c1=O
  miR-21 reporter = -18%
23: CCOc1ccc(CN(CCc2ccc3c(c2)OCO3)Cc2ccc(C)cc2)cc1
  miR-21 reporter = 0%
24: O=c1c2ccccc2nc(/C=C\c2ccccc2F)n1-c1ccc(O)cc1
  miR-21 reporter = 12%
25: COc1ccc(CCNC(=O)c2ccc3c(c2)N(Cc2cccc(Cl)c2)C(=O)CS3)cc1OC
  miR-21 reporter = u
26: CCOc1ccc(/C=C/c2nc(C#N)c(NCc3ccccc3)o2)cc1
  miR-21 reporter = u
27: O=C(O)Cn1cc(/C=C2\C(=O)NC(=O)N(c3ccc(F)cc3)C2=O)c2ccccc21
  miR-21 reporter = 3%
28: C=Cc1ccc(Cn2c(C)c(CNCCc3cc(OC)ccc3OC)c(C(=O)O)c2C)cc1
  miR-21 reporter = -4%
29: Cc1ccccc1N1C(=O)/C(=C/c2ccco2)C(=O)NC1=S
  miR-21 reporter = 3%

Arranged by number of heavy atoms (smallest number first): 3 of the compounds above.
21: CCC12CN3CC(CC)(CN(C1)C3c1c(C)[nH]c(=O)[nH]c1=O)C2=O (stereo not given)
  miR-21 reporter = 7%
19: Cc1cc(-n2c(/C=C/c3cccs3)nc3ccccc3c2=O)ccc1Br
  miR-21 reporter = 21%
20: Cc1ccc(NC(=O)N(Cc2ccc3c(c2)OCO3)C2CCN(Cc3ccccc3)CC2)cc1Cl
  miR-21 reporter = u

A portion of the library. The share of hits here may be higher or lower than overall.
